Mtb H37Rv: Mycobacterium tuberculosis H37Rv growth inhibition, cell based, confirmatory dose response (AID 1949). most inactive calls were filed without a number and no value below 0 was filed. inhibition, % at 10 µg/mL; hits with a dose series show IC50 in µg/mL. 100,000 compounds, 1.6% hits;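 active means confirmed in a dose series; inconclusive means about 50% or more but not retested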;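 further: bacteria grown 7 days with compound before Alamar blue readout; 0% = untreated bacteria and 100% = reference antibiotic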
Active calls of the source: *; i = inactive; ? = inconclusive. A portion of the library, so the mix of outcomes need not match the whole.

no.	mol	Mtb H37Rv
1	COc1c(Cl)cc(Cl)cc1C(=O)NC(=S)Nc1ccc(Cl)cn1	0%
2	Cc1ccc2c(Cl)c(C(=O)N3CCc4ccccc4C3)sc2c1	21%
3	COc1ccc(OC)c(N2C(=O)CC(N3CCN(Cc4ccccc4)CC3)C2=O)c1 (stereo not given)	5%
4	Cn1nnc2cc(C(=O)N3CCN(c4ccccn4)CC3)ccc21	i
5	CCC(C)(C)NC(=O)c1ccc(Br)cc1	8%
6	COc1cc(C2NC(=O)NC(C)=C2C(=O)OCc2ccccc2)ccc1OCCC(C)C (stereo not given)	19%
7	COc1cccc(C(=O)COc2ccc(NC(=O)c3ccc(Cl)c(Cl)c3)cc2)c1	i
8	O=C(NC1CC1)c1cc(F)c(F)cc1Cl	i
9	COC(=O)c1cc(NC(=O)CC2Sc3ccccc3NC2=O)cc(C(=O)OC)c1 (stereo not given)	i
10	Cc1ccc(C)c(OCCCC(=O)Nc2ccccc2C(F)(F)F)c1	6%
11	COC(=O)c1ccc(CSc2ccc(Br)cc2)cc1	1%
12	CCOc1ccc(CC2=C(C(=O)c3ccccc3)C(=O)c3ccccc3C2=O)cc1	i
13	O=C(Nc1nc(-c2cccc([N+](=O)[O-])c2)cs1)c1sc2cc(Cl)ccc2c1Cl	1%
14	Cc1ccc(C(C)C)c(Oc2ccc(N3C(=O)CCCC3=O)cc2)c1	i
15	Cc1cccc(NC(=S)Nc2ccc(N(C)C)cc2)c1	i
16	CCCC(=O)Nc1ccccc1NC(=O)c1ccccc1OC	i
17	CCn1c(SC/C=C/c2ccccc2)nnc1-c1cccs1	i
18	COC(=O)c1cc(-c2ccccc2)sc1NC(=S)NCc1ccccn1	3%
19	CCNC(=O)C(C)Oc1ccccc1C (stereo not given)	i
20	Cc1cc(C)cc(NC(=O)CSc2nnc(-c3ccccc3)o2)c1	i
21	CCCc1nc2c(sc3nc4c(cc32)COC(C)(C)C4)c(=O)[nH]1	i
22	CCOc1ccc(-n2c(SCc3ccc(Cl)cc3Cl)nnc2-c2cccnc2)cc1	i
23	O=S(=O)(c1cc(O)cc(S(=O)(=O)C(F)(F)F)c1)C(F)(F)F	i
24	Cc1onc(-c2ccccc2Cl)c1C(=O)NC(C)C1CC2CCC1C2 (stereo not given)	i
25	CCn1c(SCC(=O)N2CCc3ccccc32)nnc1-c1ccc([N+](=O)[O-])cc1	i
26	Cn1c(=O)c2c(nc(NCCCO)n2C/C=C/c2ccccc2)n(C)c1=O	i
27	Cc1c(NS(=O)(=O)c2ccc(Br)s2)cccc1[N+](=O)[O-]	i
28	Cc1ccc(-c2nc(=S)c3c(n2CC2CCCO2)CC(C)(C)OC3)cc1 (stereo not given)	i
29	COC(=O)c1cccc(NC(=O)c2cccc(C)c2)c1C	i
30	COc1ccc(-c2nc(C#N)c(N3CC(C)OC(C)C3)o2)cc1OC (stereo not given)	i
31	CCC(C)NCCOc1ccccc1OC (stereo not given)	i
32	COc1ccccc1/C=C/C1NC(=O)NC(C)=C1C(=O)OCc1ccccc1 (stereo not given)	13%
33	CSc1ccc(C(=S)N2CCOCC2)cc1	i
34	Cc1coc(C)c1C(=O)CC1(O)C(=O)N(CCCC#N)c2ccccc21 (stereo not given)	i
35	CC(CCc1ccccc1)NC(=O)C(C)Oc1cccc(Cl)c1 (stereo not given)	7%
36	O=C(c1ccccc1)c1coc2ccc(O)c(CN3CCOCC3)c12	i
37	Cc1ccc(OCC(=O)NCCN2CCOCC2)c(Br)c1	i
38	CCc1ccc(C(=O)NC(=S)Nc2ccc(N3CCN(C(=O)c4ccc(C)cc4)CC3)cc2)cc1	i
39	O=C(CSc1ccc(Br)cc1)NCc1ccccc1	7%
40	COc1cc(OC)c(C(=O)Nc2scc(-c3cc(C)ccc3C)c2C#N)cc1OC	i
41	CC1CC(C)CN(S(=O)(=O)c2ccc(NC(=S)NC(=O)c3ccccc3)cc2)C1 (stereo not given)	i
42	CCOc1ccc(NC(=O)c2ccc(Cl)cc2)c([N+](=O)[O-])c1	i
43	C=CCn1c(SCC(=O)Nc2ccc(CC)cc2)nnc1-c1cccnc1	i
44	Cc1ccc(NC(=O)c2cccc(F)c2)cc1[N+](=O)[O-]	i
45	c1ccc2[nH]c(CCCCc3nc4ccccc4[nH]3)nc2c1	2%
46	CC1CCCCN1S(=O)(=O)c1ccc(C(=O)NCCc2ccc(Cl)cc2)cc1 (stereo not given)	i
47	Cc1ccc(OCC(=O)N2CCN(c3cccc(Cl)c3)CC2)c(Br)c1	3%
48	CCOc1cccc(CNc2ccc(O)cc2)c1OCc1ccccc1	i
49	COC(=O)c1cccc(NC(=O)C(Cc2ccccc2)N2C(=O)c3ccccc3C2=O)c1 (stereo not given)	i
50	CC(COc1ccc(C(C)C)cc1)NC(=O)c1ccc2ccccc2c1 (stereo not given)	47%

(next part)
no.	mol	Mtb H37Rv
51	CCSc1nnc(NC(=O)c2csc(C)c2)s1	i
52	COC(=O)c1ccc(-c2c(C(F)(F)F)oc3cc(OC(C)=O)ccc3c2=O)cc1	i
53	CCOc1ccc(N2CN=c3s/c(=C\c4ccc(OC)cc4)c(=O)n3C2)cc1	?
54	Cc1ccc(NC(=O)c2ccc(COc3cc(C)ccc3C(C)C)o2)c(C)c1	39%
55	C=CCn1c(CSc2nc3ccccc3s2)nnc1SCC(=O)OCC	i
56	O=[N+]([O-])c1ccc(Sc2nnc(Cc3ccccc3)n2-c2ccccc2)nc1	i
57	COc1cc(S(=O)(=O)N2CCCc3ccccc32)ccc1Cl	i
58	CC(C)(C)C(=O)CSc1nnc(-c2ccncc2)n1-c1ccc(Br)cc1	5%
59	CCc1ccc(Oc2coc3cc(OC)ccc3c2=O)cc1	7%
60	COC(=O)c1c(NC(=S)Nc2ccc(-c3ccccc3[N+](=O)[O-])cc2)sc2c1CCC2	i
61	COc1ccc(S(=O)(=O)N(C)CC(=O)NC2CC2)cc1C	i
62	Nc1c(C(=O)N2CCOCC2)sc2nc(-c3ccccc3)cc(C(F)(F)F)c12	i
63	CCOC(=O)c1ccc(N2C(=O)C(CC(=O)Nc3ccc(Cl)cc3)N(CC(=O)OC)C2=S)cc1 (stereo not given)	i
64	CCOc1ccc(Br)cc1C1CC(=O)Nc2cc3c(cc21)OCO3 (stereo not given)	20%
65	COC(=O)c1ccccc1N(C)C(=O)C12CCC(C)(C(=O)O1)C2(C)C (stereo not given)	i
66	COC(=O)c1ccsc1NC(=O)CN1CCN(c2ccc(F)cc2)CC1	i
67	COc1cc(C=O)cc(Cl)c1OCC(=O)Nc1cccc(C)c1	25%
68	O=C(NC(=S)Nc1ccc(Cl)cc1Cl)c1ccco1	i
69	COc1cc(Cl)c(C)cc1NC(=O)CCN1C(=O)c2ccccc2C1=O	1%
70	CCOC(=O)c1ccc(NC(=O)C2=C(C)Nc3nc(CCCO)nn3C2c2cccc([N+](=O)[O-])c2)cc1 (stereo not given)	i
71	Cn1c2ccccc2c2nn3c(SCc4ccccc4)nnc3nc21	i
72	COC(=O)c1cc(C=O)cc(C=O)c1O	i
73	C=CCn1c(N)cc(=O)nc1SCC(=O)NC(C)c1ccccc1 (stereo not given)	i
74	O=C1N(CCOc2ccccc2)c2ccccc2C1(O)c1c[nH]c2ccccc12 (stereo not given)	1%
75	CC(C)(C)c1ccc(C(=O)N2CCC(C(=O)NCc3ccco3)CC2)cc1	i
76	COc1ccc(Cl)cc1N(CC(=O)Nc1ccc(F)c(F)c1)S(C)(=O)=O	i
77	O=C(O)c1ccc(CN2C(=O)c3cccc4c([N+](=O)[O-])ccc(c34)C2=O)cc1	i
78	COc1ccc(S(N)(=O)=O)cc1C	i
79	COC(=O)c1ccc(Oc2nc(Nc3ccccc3)nc(N(C)C)n2)cc1	i
80	Fc1ccc(OCc2nc3ccccc3s2)cc1	8%
81	CNS(=O)(=O)c1ccc(NC(=O)c2cc(C)c(-c3ccccc3)s2)cc1	i
82	C=CCn1c(COc2ccccc2)nnc1SCC(=O)Nc1ccccc1F	i
83	O=C(Nc1cc(Cl)c(Cl)cc1Cl)C1CC1c1ccccc1 (stereo not given)	i
84	O=S(=O)(c1ccc(C2CCCCC2)cc1)N1CCc2ccccc21	2%
85	O=C(Nc1cccc(Cl)c1)N1CCN(C(=O)Nc2cccc(Cl)c2)CC1	i
86	Cc1ccc(C(=O)Nc2ccccc2C(=O)O)cc1S(=O)(=O)NCc1ccccc1	i
87	CCOc1ccc(N2C(=O)NC(Cc3c[nH]c4ccccc34)C2=O)cc1 (stereo not given)	i
88	C=CCc1cc(OC)ccc1OCCn1ccnc1	i
89	O=C(O)C1C2CCC(C2)C1C(=O)Nc1cc(F)ccc1F (stereo not given)	2%
90	COc1cc(/C=C2/SC(=S)N(c3ccccc3)C2=O)ccc1OCCOc1ccccc1	i
91	O=C(Nc1ccccc1Br)C(=O)N1CCCCC1	i
92	COc1cccc(OCC(O)CN(C)C2CCCCC2)c1 (stereo not given)	i
93	COc1cccc(C(=O)NC(=S)Nc2cccc(C(C)=O)c2)c1	1%
94	CCOc1ccc2nc(SCC(=O)Nc3ccc(Br)cc3F)sc2c1	4%
95	O=C(CCCN1C(=O)c2ccccc2C1=O)Nc1ccc(Cl)cc1C(F)(F)F	i
96	CCc1cccc(CC)c1NC(=O)C(Cc1ccccc1)N1C(=O)c2ccccc2C1=O (stereo not given)	i
97	COC(=O)c1cc(NC(=O)c2sc3cc(Cl)ccc3c2Cl)cc(C(=O)OC)c1	i
98	COc1ccc(Cl)cc1NC(=O)c1cc2cccc(OC)c2oc1=O	5%
99	CCCn1c2ccccc2c2nnc(SCCC(=O)O)nc21	0%
100	COc1ccc(N(C)C(=O)Nc2ccc3c(c2)nnn3C)cc1	2%

(cont.)
no.	mol	Mtb H37Rv
101	Nc1nnc(SCC(=O)Nc2ccc(Oc3ccccc3)cc2)s1	i
102	FC(F)(F)c1cccc(Cn2cnc(NC(=S)Nc3ccc(Cl)cc3Cl)n2)c1	i
103	COc1ccc(OC(C)C(=O)NCc2ccncc2)cc1 (stereo not given)	i
104	CCN(CC)C(=O)C(C)N(C#N)c1nc(SC)nc(N(C)C)n1 (stereo not given)	i
105	COC(=O)COc1ccc(S(=O)(=O)N2CCCC2)cc1	i
106	CCC(=O)Oc1cccc(C(=O)Nc2ccccc2C(=O)O)c1	10%
107	CC(=O)c1cn(CCCOc2ccccc2Cl)c2ccccc12	?
108	COc1ccc(CCNC(=O)c2ccc(C(=O)NCCc3ccc(OC)c(OC)c3)nc2)cc1OC	i
109	CCc1cccc(C)c1NC(=O)COc1cccc(NC(C)=O)c1	i
110	CCOc1ccc(C(F)(F)F)cc1N	i
111	COc1cc(Cl)c(C)cc1NC(=O)C(C)Oc1cccc(Cl)c1 (stereo not given)	10%
112	COc1ccc2oc(=O)c(C(=O)Oc3ccc(Cl)cc3)cc2c1	i
113	COC(=O)c1cc(-c2ccccc2)sc1NC(=O)CN1C(=O)c2ccccc2C1=O	i
114	O=C(NC(=S)Nc1ccc(S(=O)(=O)N2CCCCC2)cc1)c1ccccc1[N+](=O)[O-]	i
115	CC(C)c1ccccc1NC(=O)C1(c2ccc([N+](=O)[O-])cc2)CCCC1	i
116	Cc1cc(C)n2c3c(c(C#N)c2n1)CCCC3	i
117	N#CCc1ccc(NC(=O)CSCc2ccccc2)cc1	i
118	CC(C)NC(=O)c1c(NC(=O)c2ccccc2)sc2c1CCCC2	3%
119	O=C(Nc1ccccc1Br)c1ccccc1-c1ccccc1	i
120	CCc1cc2c(=S)c(-c3ccccc3Cl)coc2cc1OC	6%

Molecules from the list above that have bromine:
no.	mol	Mtb H37Rv
5	CCC(C)(C)NC(=O)c1ccc(Br)cc1	8%
11	COC(=O)c1ccc(CSc2ccc(Br)cc2)cc1	1%
27	Cc1c(NS(=O)(=O)c2ccc(Br)s2)cccc1[N+](=O)[O-]	i
37	Cc1ccc(OCC(=O)NCCN2CCOCC2)c(Br)c1	i
39	O=C(CSc1ccc(Br)cc1)NCc1ccccc1	7%
47	Cc1ccc(OCC(=O)N2CCN(c3cccc(Cl)c3)CC2)c(Br)c1	3%
58	CC(C)(C)C(=O)CSc1nnc(-c2ccncc2)n1-c1ccc(Br)cc1	5%
64	CCOc1ccc(Br)cc1C1CC(=O)Nc2cc3c(cc21)OCO3 (stereo not given)	20%
91	O=C(Nc1ccccc1Br)C(=O)N1CCCCC1	i
94	CCOc1ccc2nc(SCC(=O)Nc3ccc(Br)cc3F)sc2c1	4%
119	O=C(Nc1ccccc1Br)c1ccccc1-c1ccccc1	i

(cont.)
no.	mol	Mtb H37Rv
121	CCOC(=O)C1=C(C)NC2=C(C(=O)CC(c3ccccc3)C2)C1c1ccc(C)o1 (stereo not given)	i
122	O=C(NC(=S)NCC1OCCc2ccccc21)c1ccccc1 (stereo not given)	i
123	Cc1ccc(NC(=O)CCc2ccccc2)cc1	9%
124	Cc1cc(OCCN2CCOCC2)nc2ccccc12	i
125	Cc1c(C)c2ccc(Oc3ccc([N+](=O)[O-])cc3C(F)(F)F)c(C)c2oc1=O	i
126	Cc1ccc(S(=O)(=O)Nc2nc(C)c(C)s2)cc1	i
127	CC1CCCC(N2CCC(N3CCN(c4ccccc4)CC3)CC2)C1 (stereo not given)	i
128	O=C(Nc1nnc(C(c2ccccc2)c2ccccc2)s1)c1ncn[nH]1	i
129	CCc1ccc(N(CC(=O)NCc2ccncc2)S(=O)(=O)c2ccccc2)cc1	i
130	CC1=C(C(=O)Nc2cccnc2)C(c2ccccn2)C2=C(CC(C)(C)CC2=O)N1 (stereo not given)	1%
131	COc1cc(CNCc2ccccn2)cc(OC)c1OC	i
132	Cc1scc(C(=O)N2CCN(c3ccc(Cl)cc3)CC2)c1C	6%
133	COc1cc(SC)ccc1C(=O)Nc1nnc(C(F)(F)F)s1	i

High-throughput results deposited in PubChem BioAssay by Southern Research Institute.
